Hedgehog cleavage: Drosophila hedgehog isoform A inhibitors, primary screen, biochemical, plate reader, single concentration (AID 588832); 8,000 tested, under 10 active; inhibition, % at 30.3 µM; Biochemical plate reader assay, Hedgehog inhibition; stronger effect = higher value; in the data active means inhibition from about 57%;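 further: 0% = neutral control wells and 100% = positive control wells; cholesterol-driven self-cleavage of fly hedgehog protein by fluorescence polarization; read one hour after cholesterol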
The depositor's hits bear a star. Not all compounds are listed, so the mix of outcomes need not match the whole.

Hedgehog cleavage,SMILES
5,Cc1c(C(=O)N2CCCc3ccccc32)sc2nc(-c3ccccc3)cn12
6,COc1ccccc1CCNC(=O)C(=O)NCC1OCCN1S(=O)(=O)c1ccc(Cl)cc1 (configuration not stated)
3,Cc1cc(NC(=O)c2noc3c2CCc2ccccc2-3)no1
-1,CCOC(=O)N1CCN(S(=O)(=O)c2ccc(C(=O)NNc3nc4cc(C)cc(C)c4s3)cc2)CC1
9,Cc1ccc(CNC(=O)C(=O)NCC2OCCN2S(=O)(=O)c2ccc3c(c2)OCCO3)cc1 (configuration not stated)
8,Cc1ccccc1NS(=O)(=O)c1cc2c(cc1C)N(C)CCO2
0,COc1ccc(C(=O)NCCCc2nc3ccccc3n2Cc2cc(C)ccc2C)cc1OC
1,C=C1Cn2c(nnc2-c2ccc(Cl)cc2)S1
2,Cn1cc(S(=O)(=O)Nc2ccc(F)c(Cl)c2)c(=O)n(C)c1=O
3,COc1ccc2[nH]c3c(c2c1)CCN1C(=O)N([C@@H](C)C(=O)NC2CCN(Cc4ccccc4)CC2)C(=O)[C@]31C
-7,CC1CCc2nn(CC(=O)Nc3ccc(F)cc3F)cc2C1 (configuration not stated)
20,O=C(CCc1nc2ccccc2[nH]1)N1CCN(C(=O)c2ccco2)CC1
5,CCOC(=O)C1CCN(C(=O)c2ccc(Cl)c(NC3=NC4CS(=O)(=O)CC4S3)c2)CC1 (configuration not stated)
5,CC1CN(C(=O)CCC(=O)NCc2ccccn2)c2ccccc2O1 (configuration not stated)
2,Cc1cc(C(=O)NCCCN2CCN(c3cc(Cl)ccc3C)CC2)n(-c2ccccc2)n1

Continued.
Hedgehog cleavage,SMILES
5,COc1cc(O)cc2c1[C@@H]1Oc3c(ccc(O)c3CC=C(C)C)[C@@H]1CO2
10,Oc1ccc2ccccc2c1CN1CCN(c2ccccc2F)CC1
3,CSCC[C@H](NC(=O)N1C[C@H]2C[C@@H](C1)c1cccc(=O)n1C2)C(=O)Nc1ccc(NC(C)=O)cc1
19,Cn1cc(S(=O)(=O)N2CCN(c3ccccc3)CC2)c(=O)n(C)c1=O
8,COc1ccc(Cl)cc1N1C(=O)C2CCCN2C1c1cccc(F)c1 (configuration not stated)
7,COc1ccc(-n2c(Cc3cccn3C)nnc2SCC(=O)Nc2nccs2)cc1
21,CCOc1ccc(NC(=O)CN2CC(c3ccccc3)CC2=O)cc1 (configuration not stated)
1,COc1ccc(N(CC(=O)N2CCc3ccccc3C2)S(=O)(=O)c2c(C)nn(C)c2C)cc1
5,Cc1ccc2oc(=O)c3cnn(CC(=O)NC4CCC(C)CC4)c3c2c1 (configuration not stated)
4,CC/C(O)=C1\C(=O)CC(c2ccccc2)CC1=NCCc1c(C)[nH]c2ccc(C)cc12 (configuration not stated)
28,CCOc1ccc(C2N(c3cc(Cl)ccc3OC)C(=O)C3CCCN32)cc1OC (configuration not stated)
3,O=C(Nc1ccccc1O)c1ccc(NS(=O)(=O)c2cccc3cccnc23)cc1
20,Cc1ccc(C)c(N2CCN(CCCNC(=O)Cn3cc4c(n3)CCC(C)C4)CC2)c1 (configuration not stated)
4,CCc1nnc(NC(=O)CSc2nccn2-c2cc(C)cc(C)c2)s1
7,O=C(CSc1nc2c(c(=O)n1-c1ccccc1)SCC2)N1CCOCC1

Among those listed so far, these have four or more nitrogen atoms:
Hedgehog cleavage,SMILES
-1,CCOC(=O)N1CCN(S(=O)(=O)c2ccc(C(=O)NNc3nc4cc(C)cc(C)c4s3)cc2)CC1
3,COc1ccc2[nH]c3c(c2c1)CCN1C(=O)N([C@@H](C)C(=O)NC2CCN(Cc4ccccc4)CC2)C(=O)[C@]31C
20,O=C(CCc1nc2ccccc2[nH]1)N1CCN(C(=O)c2ccco2)CC1
2,Cc1cc(C(=O)NCCCN2CCN(c3cc(Cl)ccc3C)CC2)n(-c2ccccc2)n1
3,CSCC[C@H](NC(=O)N1C[C@H]2C[C@@H](C1)c1cccc(=O)n1C2)C(=O)Nc1ccc(NC(C)=O)cc1
19,Cn1cc(S(=O)(=O)N2CCN(c3ccccc3)CC2)c(=O)n(C)c1=O
7,COc1ccc(-n2c(Cc3cccn3C)nnc2SCC(=O)Nc2nccs2)cc1
1,COc1ccc(N(CC(=O)N2CCc3ccccc3C2)S(=O)(=O)c2c(C)nn(C)c2C)cc1
20,Cc1ccc(C)c(N2CCN(CCCNC(=O)Cn3cc4c(n3)CCC(C)C4)CC2)c1 (configuration not stated)
4,CCc1nnc(NC(=O)CSc2nccn2-c2cc(C)cc(C)c2)s1

(further entries)
Hedgehog cleavage,SMILES
5,COc1ccc(Nc2nc(N)nc(CN3CCc4ccccc4C3)n2)cc1
0,COc1ccc2c(OC)c3ccoc3nc2c1OC
11,COc1ccc(-n2c(Cc3cc(=O)[nH]c(=O)[nH]3)nnc2SCC(=O)N2CCC(C)CC2)cc1
20,CC(=O)c1ccc(NC(=O)C2CCCN2S(=O)(=O)c2ccc(F)cc2)cc1 (configuration not stated)
4,Cn1nc(C(=O)NC2CCCCC2)c2c1-c1ccccc1SC2
-4,Cc1ccc(CCNS(=O)(=O)c2cc3c(cc2Cl)NC(=O)CO3)cc1
-2,C=C(C)CC1N(c2cccc(OC)c2)C(=O)C2C(C(=O)O)C3C=CC21O3 (configuration not stated)
0,O=C(NCCn1ccc2ccccc21)c1ccc(S(=O)(=O)N2CCOCC2)cc1
14,O=C(O)Cc1c[nH]c2cccc(O)c12
23,CC1CCc2nn(CC(=O)NCc3ccc4c(c3)OCO4)cc2C1 (configuration not stated)
10,COc1ccc(-n2c(Cn3c(=O)sc4ccccc43)nnc2SCC(=O)N2CCCC2)cc1
15,CCC(=O)N1C(C(=O)O)CSC1c1ccc(OC)cc1 (configuration not stated)
8,CCN1CCN(CCNC(=O)C2CCCN(Cc3nc(-c4cccc(Cl)c4)oc3C)C2)CC1 (configuration not stated)
7,CCOC(=O)N1CCC(N2C(=O)c3ccccc3C2Nc2c(C)cccc2C)CC1 (configuration not stated)
5,COc1ccc(CCNC(=O)CCC(=O)N2CC(C)Oc3ccccc32)cc1OC (configuration not stated)

(continued)
Hedgehog cleavage,SMILES
11,CCn1cc(C(=O)NC2CCCCC2)c(=O)c2cc(S(=O)(=O)N(C)C)ccc21
19,COc1ccc(-c2nc(CCNC(=O)c3cccs3)cs2)cc1
5,Cc1ccc(CNC(=O)c2cc(S(=O)(=O)N3CCOCC3)cn2C)cc1
-13,Cc1cc(C)n2c(SCC(=O)Nc3ccccc3)nnc2n1
25,CCOc1ccccc1Nc1cc(C)nc2nc(C)nn12
7,O=C(NCCn1cc(SCC(=O)N2CCOCC2)c2ccccc21)c1c(F)cccc1F
3,C=C[C@@]1(C)CC(=O)[C@]2(O)[C@@]3(C)[C@@H](O)CCC(C)(C)[C@@H]3[C@H](OC(C)=O)[C@H](O)[C@@]2(C)O1
15,C=CCSc1nnc(Cn2c(=O)sc3ccccc32)n1C
4,c1ccc2nc3ccccc3nc2c1
15,Cc1cc2c(cc1S(=O)(=O)Nc1cccc(F)c1)n(C)c(=O)c(=O)n2C
17,CCOC(=O)c1[nH]c(C)c(C(=O)Nc2ccc(Cl)cc2)c1C
20,CC(=O)n1nc(-c2ccco2)nc1SCc1ccccc1
0,OC1CCCC1
4,CCC(Oc1ccccc1)C(=O)Nc1cc(C)on1 (configuration not stated)
2,CC1CN(C(=O)CCC(=O)N2CCN(c3ccccn3)CC2)c2ccccc2O1 (configuration not stated)

Later entries.
Hedgehog cleavage,SMILES
15,Cc1ccc(Cl)cc1N1CCN(C(=O)C2CCN(c3nnc(-n4cccc4)s3)CC2)CC1
5,O=C(CSc1cn(CCNC(=O)c2cccs2)c2ccccc12)NCc1ccccc1
6,Cc1ccccc1NC(=O)CN1C(=O)COc2ccc(Cl)cc21
-12,Cc1c(CCC(=O)N2CCC(C(=O)O)CC2)c(=O)oc2cc3oc4c(c3cc12)CCCC4
7,COc1ccc(-c2nc(CS(=O)CC(=O)NCc3ccccn3)c(C)o2)cc1 (configuration not stated)
2,CCOc1ccc(CCNC(=O)Cc2ccc(NC3=NC4CS(=O)(=O)CC4S3)cc2)cc1 (configuration not stated)
3,CC(C)=CCc1c(O)cc(O)c2c(=O)c(O[C@@H]3O[C@@H](C)[C@H](O)[C@@H](O)[C@H]3O)c(-c3ccc(O)cc3)oc12
10,CC(C)C(=O)N=c1sc2cc(F)cc(F)c2n1C
19,COc1ccc(C(=O)NCC(c2cccnc2)N2CCN(c3ccc(F)cc3)CC2)cc1OC (configuration not stated)
5,CC1=C(CC[C@@H](C)CO)OC2CC3C4CCC5CC(O)CCC5(C)C4CC(=O)C3(C)C12 (some centres not stated)
2,COc1ccc(-c2coc3cc(OC)ccc3c2=O)cc1
15,Cc1c(C(=O)Nc2ccncc2)sc2nc(-c3ccccc3)cn12
5,Cc1coc2cc3oc(=O)c(CCC(=O)NCCN4CCOCC4)c(C)c3cc12
2,Cn1cc(S(=O)(=O)N2CCc3ccccc32)cc1C(=O)NC(C)(C)C
5,COc1ccccc1CNC(=O)c1cc(S(=O)(=O)N2CCCC2)cn1C

Next section.
Hedgehog cleavage,SMILES
4,COC(=O)C(CCSC)NC(=O)Cn1ncc2c(=O)oc3ccccc3c21 (configuration not stated)
8,Cc1nnc(NC(=O)c2c(F)cccc2F)s1
5,COc1ccc(NC(=O)C2=CC(c3cccs3)=NS(=O)(=O)N2C)cc1
4,COc1cccc(NC(=O)COc2cc(O)c3c(c2)OC(C)(C)CC3=O)c1
7,COc1ccc(N2Cc3cccc(C(=O)NC(C)CCc4ccco4)c3C2=O)cc1 (configuration not stated)
7,Cc1c(Cc2ccccc2)c(=O)oc2c(C)c(OCC(=O)N[C@@H](Cc3ccccc3)C(=O)O)ccc12
17,Cc1ccnc(N2C(=O)c3ccccc3C2Nc2ccc3c(c2)OCCO3)c1 (configuration not stated)
6,COc1ccc(OC)c2sc(NC(=O)CCS(=O)(=O)c3ccccc3)nc12
-2,C=C(C)C(COc1c2occc2cc2ccc(=O)oc12)OC(C)(C)C(O)COc1c2occc2cc2ccc(=O)oc12 (configuration not stated)
5,CCNC(=S)NCc1ccc2[nH]c(C)cc2c1
5,Cc1ccccc1-c1nc(CS(=O)(=O)CC(=O)NCc2ccc(F)cc2)c(C)o1
4,COc1ccc(-c2cc(=O)oc3cc(OCC(=O)NCCCn4ccnc4)ccc23)cc1
2,Cc1c(C(=O)N2CCCC2)oc2c1-c1[nH]ncc1CC2
0,Cc1ccc2oc(=O)n(CC(=O)O)c2c1
11,O=C(CCCCCn1c(=O)[nH]c2ccsc2c1=O)N1CCN(C2CCCCC2)CC1

Entries above that have a thiophene ring, fused or not:
Hedgehog cleavage,SMILES
19,COc1ccc(-c2nc(CCNC(=O)c3cccs3)cs2)cc1
5,O=C(CSc1cn(CCNC(=O)c2cccs2)c2ccccc12)NCc1ccccc1
5,COc1ccc(NC(=O)C2=CC(c3cccs3)=NS(=O)(=O)N2C)cc1
11,O=C(CCCCCn1c(=O)[nH]c2ccsc2c1=O)N1CCN(C2CCCCC2)CC1

The list goes on:
Hedgehog cleavage,SMILES
14,COc1ccc(CCNC(=O)c2cc3ccccn3n2)c(OC)c1OC
-4,CCc1nnc(NC(=O)CSc2nnc(Cc3cccn3C)n2CCOC)s1
8,NC(=O)CC[C@H](NC(=O)[C@H](Cc1ccccc1)n1c(=O)[nH]c2ccccc2c1=O)C(=O)N1CCC[C@H]1C(=O)O
4,CC(C)Cn1c(CN(C)Cc2ccccc2)nc2c1c(=O)n(C)c(=O)n2C
5,CC(Oc1ccccc1Cl)C(=O)N(Cc1cccs1)C1CCS(=O)(=O)C1 (configuration not stated)
5,CC1=CC(=O)C2=C(C)CCC3C(C)C(=O)OC3C12 (configuration not stated)
5,CC(C)[C@H](NC(=O)[C@@H]1Cc2c([nH]c3ccccc23)C2c3ccccc3C(=O)N21)C(=O)N1CCC[C@H]1C(=O)O (some centres not stated)
0,COc1cccc(-c2nc(C(=O)NCC3CCCO3)cc3c2[nH]c2ccccc23)c1 (configuration not stated)
5,Cc1cc(C)cc(NC(=O)C2CCCN(S(=O)(=O)c3ccc4[nH]c(=O)ccc4c3)C2)c1 (configuration not stated)
0,CC(C)C[C@@H](C(=O)NC1CCN(Cc2ccccc2)CC1)N1C(=O)N2CCc3c([nH]c4ccccc34)[C@@]2(C)C1=O
2,Cc1ccc(NC(=O)CN(C2=NC3CS(=O)(=O)CC3S2)c2ccccc2)cc1 (configuration not stated)
24,COc1cccc(Cn2nnc(C(=O)Nc3ccc(C)cc3)c2N)c1
2,COC(=O)c1oc2ccc(Br)cc2c1NC(=O)CCCN1C(=O)c2ccccc2C1=O
19,COc1ccc(CCNC(=O)CSc2cn(Cc3cccc(C)c3)c3ccccc23)cc1OC
-1,O=C(CSc1c[nH]c2ccccc12)NCc1ccc2c(c1)OCO2

The results go on.
Hedgehog cleavage,SMILES
10,Cc1nnc(NC(=O)CSc2cn(CCNC(=O)c3ccccc3)c3ccccc23)s1
24,COCCNC(=O)CS(=O)(=O)Cc1nc(-c2ccc(C)cc2)oc1C
2,CSC1=NCCN1C(=O)COc1ccc2ccccc2c1
0,Cc1ccc(-c2c(C(=O)N3CCOCC3)oc(=O)c3ccccc23)cc1
4,COc1cc(CC2COC(c3ccc(O)c(OC)c3)C2COC(C)=O)ccc1O (configuration not stated)
1,N#Cc1nc(-c2ccccc2F)oc1NCCN1CCOCC1
4,CCCc1cc(=O)oc2cc(C)cc(OCC(=O)NC(Cc3ccc(Cl)cc3)C(=O)O)c12 (configuration not stated)
8,O=C(Cn1cc2c(n1)CCCCC2)N1CCc2ccccc21
5,CCOC(=O)N1CCC(NC(=O)c2cc3c(C)nc4ccccc4c3o2)CC1
-3,O=C(NCCCn1ccnc1)C(=O)NCC(c1cccnc1)N1CCN(c2ccc(F)cc2)CC1 (configuration not stated)
0,Nc1ccccc1O
3,O=C(NCc1ccc2[nH]c3c(c2c1)CCCC3)c1ccc(S(=O)(=O)N2CCCC2)cc1
29,COc1cccc(C2C3=C(CC(C)(C)CC3=O)Nc3cc4c(cc32)OCO4)c1 (configuration not stated)
10,Cc1cccc(NC(=O)CN2C(=O)COc3ccc(Cl)cc32)c1C
1,O=C(NCCN1CCCC1)c1ccc2c(c1)N(Cc1ccc(F)cc1)C(=O)c1ccccc1S2=O (configuration not stated)
5,CSCC[C@H](NC(=O)[C@H](Cc1ccccc1)n1c(=O)[nH]c2ccccc2c1=O)C(=O)N1CCC[C@H]1C(=O)O
15,COC(=O)Cn1c(=NC(=O)C(C)C)sc2c(C)cc(C)cc21
2,C=C(C)c1ccccc1
